GLA inh pH 4.5: alpha-galactosidase A (human) inhibition, pH 4.5; P06280; purified enzyme, 4-MU-alpha-Gal fluorescence, pH 4.5; activity change, negative = inhibition, % at 105 µM; 230,000 tested, under 10 active; AID 1467; inconclusive = small, poorly fitted or top-dose-only inhibition, or a rising curve; inactive = flat fitted curve, though single readings scatter; no compound was filed as active;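 also: 0% = full activity with enzyme and -100% = basal without enzyme; dose as in the result columns while the protocol names 77 µM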
Target sequence (P06280 whole entry, looked up): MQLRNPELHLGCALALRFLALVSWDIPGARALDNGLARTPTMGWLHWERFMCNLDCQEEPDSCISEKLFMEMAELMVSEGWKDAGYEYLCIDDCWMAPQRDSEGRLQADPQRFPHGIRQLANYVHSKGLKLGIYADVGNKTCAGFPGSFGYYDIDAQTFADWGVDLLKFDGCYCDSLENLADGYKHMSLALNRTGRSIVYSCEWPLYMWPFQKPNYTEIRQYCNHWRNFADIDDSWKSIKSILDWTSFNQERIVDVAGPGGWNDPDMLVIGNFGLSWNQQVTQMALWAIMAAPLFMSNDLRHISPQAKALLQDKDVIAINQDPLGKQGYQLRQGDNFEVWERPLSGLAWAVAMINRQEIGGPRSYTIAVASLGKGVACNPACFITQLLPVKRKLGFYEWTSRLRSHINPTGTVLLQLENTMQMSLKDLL
miR-21 FLuc: raises the signal of a miR-21 reporter. AID 2288. Potency, µM (titrated, usually from 38.3 µM), inactives show top-dose reporter change, positive = more light. 340,000 tested, under 10 active. HeLa miR-21 FLuc reporter, luciferase, 48 h; active = well fitted rising curve with a large enough effect; inconclusive = small, poorly fitted or top-dose-only effect; inactive = no such curve, though single readings can be large or run the other way;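 also: % of control where 0% means no effect; miR-21 action dims this reporter so a rising signal means less miR-21 action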
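HeLa cells stably expressing CMV-driven firefly luciferase with a downstream miR-21 binding sequence, endogenously expressing miR-21, were treated with titrations (up to about 40uM final) for 48 hours at 37 degree Celsius. Luciferase luminescence was read after lysis.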
Rango complex inh: Rango-importin beta binding inhibition. Q14974. Rango CFP/YFP FRET sensor + importin beta, 45 min. Potency, µM (highest dose often 92.2 µM), for the others: at the top dose inhibition of complex formation. 340,000 tested, 0.031% active. AID 540263; active = rising FRET ratio curve, often small or poorly fitted; inconclusive = mostly compound fluorescence or quenching in the first reads; inactive = flat curves in all reads;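 also: potency is read from the fitted curve at half-maximal effect; 0% = DMSO wells and 100% = buffer wells lacking importin beta; nearly all actives have a fitted effect of over 15% in size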
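FRET biosensor Rango (snurportin 1 IBB between N-terminal EYFP and C-terminal Cerulean), 50 nM in PBS/1 mM DTT/0.02% Tween-20/0.1% BSA, preincubated 5 min RT with compound; 0.125 microM importin beta added, 45 min RT, CFP/YFP FRET ratio read.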
Rango dissoc inh: inhibitors of RanGTP-induced Rango-importin beta complex dissociation; Biochemical FRET Rango-importin beta, RanGTP-induced dissociation; O95149+P62826; 340,000 tested, 0.071% active; AID 540253; Potency, µM (highest dose often 46.1 µM), without a hit: at the highest dose activity change, negative = inhibition; active means falling FRET ratio curve, often poorly fitted, with flat reads before Ran was added; inconclusive means other falling curves, or compound fluorescence or quenching; inactive means flat or rising ratio curve;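 also: potency is read from the fitted curve at half-maximal effect; % of control where 0% means no effect; nearly all actives have a fitted effect of over 45% in size; -100% = wells without RanGTP and RCC1; the record marks most hits as doubtful in a second field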
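Two FRET readings bracket the reaction: one 5 min after compound meets Rango–importin beta, another 45 min after RanGTP-RCC1 (0.6 uM Ran, 0.2 uM RCC1, 2 mM GTP) is added. Only the second defines inhibition.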
An asterisk follows results filed as active.

Screening CC(C)[N+](C)(C)CC#CC(O)(c1ccccc1)c1ccccc1 returned GLA inh pH 4.5 9, miR-21 FLuc -1%, Rango complex inh 2.6% and Rango dissoc inh 1%.
For Cc1nn(C)cc1S(=O)(=O)NCc1ccccc1Cl the results were miR-21 FLuc -1%, Rango complex inh -0.5% and Rango dissoc inh -8%.
Cc1nn(-c2ccccc2C(F)(F)F)c(=O)c2noc(C)c12 was read as GLA inh pH 4.5 0, miR-21 FLuc 4%, Rango complex inh -1.8% and Rango dissoc inh -8%.
`Cc1ccc(NC(=O)CSCC(=O)Nc2cccc3ncccc23)cc1` gave Rango complex inh inconclusive and Rango dissoc inh -25%.
Screening Cc1ccc(C)c(S(=O)(=O)N2CCN(C(=O)Cn3cnc4c3c(=O)n(C)c(=O)n4C)CC2)c1 returned miR-21 FLuc 0%, Rango complex inh 0.6% and Rango dissoc inh 21%.
`O=S(=O)(c1cnc(Cl)c(Br)c1)N1CCc2ccccc21` gave GLA inh pH 4.5 -2, miR-21 FLuc 7%, Rango complex inh 3.7% and Rango dissoc inh 1%.
Cc1ccc(NC(=O)CN2C(=O)N/C(=C/c3ccc(N4CCOCC4)cc3)C2=O)cc1 was read as GLA inh pH 4.5 0, miR-21 FLuc -50%, Rango complex inh inconclusive and Rango dissoc inh inconclusive.
COC(=O)COc1ccc(S(=O)(=O)Nc2ccc(C(N)=O)cc2)cc1C was read as GLA inh pH 4.5 -3, miR-21 FLuc 0%, Rango complex inh -0.8% and Rango dissoc inh 12%.
For CCc1ccc(N(CC(=O)NC2CC2)S(=O)(=O)c2ccc(C)cc2)cc1 the results were miR-21 FLuc -4%, Rango complex inh -0.5% and Rango dissoc inh -3%.
Screening N#C/C(=C\c1ccc(-c2cccc([N+](=O)[O-])c2)o1)C(=O)NCCN1CCOCC1 returned GLA inh pH 4.5 -27, miR-21 FLuc -10%, Rango complex inh -2.9% and Rango dissoc inh 1%.
Screening CC(C)(C)c1ccc(S(=O)(=O)NCCc2ccncc2)cc1 returned GLA inh pH 4.5 4, miR-21 FLuc -1%, Rango complex inh 1.5% and Rango dissoc inh -6%.
COCCn1ccc2c(OCC(=O)Nc3cccc(NC(C)=O)c3)cccc2c1=O was read as Rango complex inh 0.4% and Rango dissoc inh 6%.
For CN(C)N1C(N)=C(C#N)C(c2ccccc2)C2=C1CC(C)(C)CC2=O (stereo unspecified) the results were miR-21 FLuc -5%, Rango complex inh -1.1% and Rango dissoc inh 2%.
Screening c1ccc(CN2CCC(=NNc3nc4ccccc4[nH]3)CC2)cc1 returned GLA inh pH 4.5 2, miR-21 FLuc 11%, Rango complex inh 3.4% and Rango dissoc inh -14%.
For CCOC(=O)c1c(C)[nH]c(C(=O)Cn2nnc(-c3ccc(Cl)cc3)n2)c1C the results were GLA inh pH 4.5 5, miR-21 FLuc 0%, Rango complex inh -5.8% and Rango dissoc inh 3%.
For CN(C)S(=O)(=O)N1CCc2ccc(NC(=O)C3CCCO3)cc2C1 (stereo unspecified) the results were miR-21 FLuc -8%, Rango complex inh -0.8% and Rango dissoc inh -4%.
For Cc1ccccc1Cn1nc(C)c(NC(=O)c2cc(-c3ccco3)on2)c1C the results were GLA inh pH 4.5 -1, miR-21 FLuc -1%, Rango complex inh 3.4% and Rango dissoc inh -1%.
Fc1ccc(N2CCN(C(=S)NCc3ccco3)CC2)cc1 was read as GLA inh pH 4.5 -1, miR-21 FLuc -7%, Rango complex inh 1.1% and Rango dissoc inh -11%.
Screening CCC(C)NC(=O)CSc1nnc(-c2cc(OC)c(OC)c(OC)c2)c(-c2cc(OC)c(OC)c(OC)c2)n1 (stereo unspecified) returned miR-21 FLuc -14%, Rango complex inh -0.9% and Rango dissoc inh 29%.
Screening Cc1ccc(CN(C(=O)c2cccs2)C2CCS(=O)(=O)C2)cc1 (stereo unspecified) returned miR-21 FLuc -2%, Rango complex inh -1.5% and Rango dissoc inh -7%.
For CCCCCc1c(C)nc(N2CCc3ccccc32)[nH]c1=O the results were GLA inh pH 4.5 -9, miR-21 FLuc 2%, Rango complex inh -1.7% and Rango dissoc inh -4%.
Screening COc1cccc(NC(=O)c2nc(S(C)(=O)=O)ncc2Cl)c1 returned miR-21 FLuc inconclusive, Rango complex inh -1.6% and Rango dissoc inh 3%.
Screening COc1ccccc1NS(=O)(=O)c1cccc(N=C2N=C(N)c3ccccc32)c1 returned GLA inh pH 4.5 -5, miR-21 FLuc 3%, Rango complex inh inconclusive and Rango dissoc inh -12%.
Screening Cc1ccc(S(=O)(=O)N2CCN(C(=O)c3n[nH]c(=O)c4ccccc34)CC2)c(C)c1 returned Rango complex inh 1.9% and Rango dissoc inh 1%.
For Cc1cc(C)n(-c2nc(-c3ccc(Cl)cc3)cs2)n1 the results were GLA inh pH 4.5 6, miR-21 FLuc -31%, Rango complex inh 1.2% and Rango dissoc inh 7%.
Screening CC(OC(=O)c1nn(C(C)C)c(=O)c2ccccc12)C(=O)Nc1ncc(Cl)cc1Cl (stereo unspecified) returned GLA inh pH 4.5 11, miR-21 FLuc -3%, Rango complex inh 2.4% and Rango dissoc inh inconclusive.
O=C(Cc1ccc(Cl)cc1)NNc1c(F)c(F)cc(F)c1F was read as GLA inh pH 4.5 0, miR-21 FLuc -13%, Rango complex inh 0.0% and Rango dissoc inh -7%.
Screening COc1ccc(N(C2=NCCCS2)S(=O)(=O)c2ccc(C(C)(C)C)cc2)cc1 returned GLA inh pH 4.5 0, miR-21 FLuc 3%, Rango complex inh inconclusive and Rango dissoc inh -7%.
For COc1ccc2c(c1)C1NC(=S)NC(C)(O2)C1C(=O)Nc1ccc(Cl)cc1 (stereo unspecified) the results were GLA inh pH 4.5 0, miR-21 FLuc 6%, Rango complex inh -6.2% and Rango dissoc inh 16%.
`COc1cc(CN(C)CC(=O)c2[nH]c(C)c(C(C)=O)c2C)ccc1OC(F)F` gave GLA inh pH 4.5 1, miR-21 FLuc 1%, Rango complex inh 4.9% and Rango dissoc inh -2%.
`CC(C)N1C(=O)c2ccccc2C1C(=O)NCCc1ccccc1` (stereo unspecified) gave miR-21 FLuc -1%, Rango complex inh 2.1% and Rango dissoc inh 0%.
For Oc1ccc2ccccc2c1CN1CCN(C/C=C/c2ccccc2)CC1 the results were miR-21 FLuc 0%, Rango complex inh 0.2% and Rango dissoc inh 0%.
CC(=O)Nc1ccc(S(=O)(=O)NCCOc2ccc(Cl)cc2C)cc1 was read as GLA inh pH 4.5 -10, miR-21 FLuc -8%, Rango complex inh -1.8% and Rango dissoc inh -5%.
Screening CC(C)(C)NC(=O)CC1C[C@H](C(=O)N2CCCCC2)[C@@]2(CCc3ccccc3)c3[nH]c4ccccc4c3CCN2C1=O (stereo partly specified) returned Rango complex inh -0.7% and Rango dissoc inh 10%.
Cc1nc(SCc2cccc(F)c2)c2oc3ccccc3c2n1 was read as GLA inh pH 4.5 -8, miR-21 FLuc -1%, Rango complex inh -2.6% and Rango dissoc inh 1%.
For Cc1ccc(S(=O)(=O)N(C)CC(=O)N/N=C/c2ccc(C)o2)cc1 the results were GLA inh pH 4.5 3, miR-21 FLuc 4%, Rango complex inh 3.8% and Rango dissoc inh -11%.
For Cc1sc(NC(=S)NC(=O)c2cccs2)nc1-c1ccc(CC(C)C)cc1 the results were GLA inh pH 4.5 1, miR-21 FLuc -7%, Rango complex inh inconclusive and Rango dissoc inh 0%.
Screening CN(c1ccccc1)S(=O)(=O)c1ccc(-c2ccccc2)cc1 returned miR-21 FLuc 0%, Rango complex inh -1.7% and Rango dissoc inh -6%.
`Cn1cc(SCC(=O)NC2CCCCC2)c2ccccc21` gave miR-21 FLuc -8%, Rango complex inh -1.0% and Rango dissoc inh -5%.
For COc1cccc(CNC(=O)CSCc2cnn(-c3ccccc3)c2-n2cccc2)c1 the results were GLA inh pH 4.5 -3, miR-21 FLuc -5%, Rango complex inh -0.1% and Rango dissoc inh -8%.
For Cc1ccc(NS(=O)(=O)c2ccc3c(c2)C(=O)c2ccccc2C3=O)c(C)c1 the results were GLA inh pH 4.5 0, miR-21 FLuc -10%, Rango complex inh 2.5% and Rango dissoc inh -1%.
`COc1ccc(C(=O)N(C)CC2CCN(CCc3cccc(C(F)(F)F)c3)CC2)cc1C` gave miR-21 FLuc 20%, Rango complex inh -0.2% and Rango dissoc inh -21%.
`CCOc1ccc(NC(=S)NC(=O)C2CCCC2)cc1` gave miR-21 FLuc -37%, Rango complex inh 4.2% and Rango dissoc inh -7%.
O=C(Cc1ccccc1)NNS(=O)(=O)c1ccccc1[N+](=O)[O-] was read as miR-21 FLuc 0%, Rango complex inh -0.9% and Rango dissoc inh -5%.
Screening O=C(Cc1csc(Nc2nc(=S)[nH]c3ccccc23)n1)N1CCN(c2cccc(Cl)c2)CC1 returned GLA inh pH 4.5 2, miR-21 FLuc 0%, Rango complex inh -4.2% and Rango dissoc inh 1%.
Screening O=C(CS(=O)CC(=O)N(CC(=O)NC1CCCC1)C1CCCC1)Nc1ccc(F)cc1 (stereo unspecified) returned GLA inh pH 4.5 5, miR-21 FLuc -1%, Rango complex inh 2.7% and Rango dissoc inh 11%.
Screening O=C(COC(=O)CCOc1ccccc1)NCc1ccco1 returned GLA inh pH 4.5 4, miR-21 FLuc -1%, Rango complex inh 3.9% and Rango dissoc inh -14%.
O=C(NC(=S)Nc1nc(-c2ccc(Br)cc2)cs1)c1ccco1 was read as GLA inh pH 4.5 -10, miR-21 FLuc 1%, Rango complex inh 7.8% and Rango dissoc inh 1%.
For COc1ccccc1N1C(=O)C=C(Sc2nc(C)cc(C)n2)C1=O the results were GLA inh pH 4.5 2, miR-21 FLuc -2%, Rango complex inh -1.0% and Rango dissoc inh 3%.
CCc1cc(C(=O)N2CCCC(CCC(=O)NCc3cccc(OC)c3)C2)no1 (stereo unspecified) was read as GLA inh pH 4.5 7, miR-21 FLuc -1%, Rango complex inh 2.9% and Rango dissoc inh 3%.
Screening CCCCN1CC(O)=C(c2nc(-c3ccc(Br)cc3)cs2)C1=N returned GLA inh pH 4.5 2, miR-21 FLuc -4%, Rango complex inh 0.7% and Rango dissoc inh 8%.
For COc1cc(/C=N/NC(=O)c2cc3ccccc3[nH]2)ccc1O the results were miR-21 FLuc 17%, Rango complex inh 0.3% and Rango dissoc inh 1%.
COC(=O)N=Nc1c(O)n(Cc2ccccc2)c2ccccc12 was read as GLA inh pH 4.5 -3, miR-21 FLuc -2%, Rango complex inh -0.7% and Rango dissoc inh -2%.
For COc1ccccc1-c1cc2nc(C)cc(C)n2n1 the results were GLA inh pH 4.5 -9, miR-21 FLuc -33%, Rango complex inh 8.6% and Rango dissoc inh 10%.
`Cc1cccc(NC(=O)C2CCN(S(=O)(=O)c3ccc4c(c3)C(C)(C)C(=O)N4C)CC2)c1C` gave miR-21 FLuc 1%, Rango complex inh 0.3% and Rango dissoc inh -5%.
CN(CCO)c1ccc(-c2nn(C)c(=O)c3ccccc23)cc1[N+](=O)[O-] was read as GLA inh pH 4.5 -2, miR-21 FLuc -2%, Rango complex inh -1.7% and Rango dissoc inh -21%.
COc1ccc(NC(=O)Cn2nc(C)c3ccccc3c2=O)cc1 was read as miR-21 FLuc -5%, Rango complex inh -1.7% and Rango dissoc inh -3%.
Screening CCCCC(=O)Nc1ccccc1Oc1ccccc1 returned GLA inh pH 4.5 6, miR-21 FLuc -6%, Rango complex inh 0.8% and Rango dissoc inh 16%.
For CC(C)Sc1nc(N2CCOCC2)c2c(c1C#N)CC(C)(C)SC2 the results were GLA inh pH 4.5 -4, miR-21 FLuc -2%, Rango complex inh 2.3% and Rango dissoc inh 17%.
For COc1ccccc1NS(=O)(=O)c1cc(NC(=O)c2cc[n+]([O-])cc2)ccc1N1CCCC1 the results were GLA inh pH 4.5 -9, miR-21 FLuc 2%, Rango complex inh 3.4% and Rango dissoc inh 3%.
For O=C(Cc1ccc(NC2=NC3CS(=O)(=O)CC3S2)cc1)NCc1ccccc1 (stereo unspecified) the results were miR-21 FLuc 0%, Rango complex inh 0.2% and Rango dissoc inh 0%.

Source: PubChem BioAssay (National Center for Advancing Translational Sciences (NCATS))

A portion of the library, so the mix of outcomes need not match the whole.
